HPGD block: HPGD (human) dehydrogenase inhibition; 150,000 tested, 4.3% active; purified HPGD, NADH fluorescence kinetic, PGE2 substrate; Potency, µM, for the others: at the top dose activity change, negative = inhibition, most hits filed as inhibitors; AID 894; active = well fitted inhibition curve with a large enough effect (not every such curve was filed as active); inconclusive = small, poorly fitted or top-dose-only effect, or another doubt; inactive = no such curve, though single readings can be large or run the other way;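 also: top concentration of the series not given in the record; plate controls included wells without enzyme; inactives centre near -10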
Target sequence (P15428 whole entry, looked up): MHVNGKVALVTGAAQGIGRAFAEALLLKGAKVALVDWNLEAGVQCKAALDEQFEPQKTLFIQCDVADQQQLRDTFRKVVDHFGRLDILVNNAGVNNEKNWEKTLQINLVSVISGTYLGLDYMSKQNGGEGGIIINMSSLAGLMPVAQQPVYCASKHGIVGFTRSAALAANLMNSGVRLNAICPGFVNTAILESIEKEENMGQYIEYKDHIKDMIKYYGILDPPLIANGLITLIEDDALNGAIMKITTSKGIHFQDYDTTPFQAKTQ
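20 nM HPGD preincubated 15 min at room temperature with compound in 50 mM Tris-HCl pH 8, 0.01% Tween 20. Started with 1 mM NAD+ and 30 uM prostaglandin E2; NADH fluorescence (360/450 nm) read 5 times over 30-s intervals, last minus first.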
The depositor's hits bear a star; ? = inconclusive. % is scaled to controls: 0 for no effect and ±100 for the full control effect; potency is read from the fitted curve at half-maximal effect. The list is partial; the hit share may differ from the screen's.

| SMILES | HPGD block |
| --- | --- |
| N#CC1=C(N)N(c2ccccc2)C(c2ccccc2)C1(C#N)C#N (configuration not stated) | ? |
| Cc1sc2c(c1C)c(=O)n(-c1ccc(F)cc1)c(=O)n2CC(=O)NCc1ccco1 | 1.9% |
| CCOC(=O)c1cnn(-c2ccccn2)c1N | ? |
| C/C(=N\Nc1ccc(F)cc1)c1ccncc1 | -25.1% |
| CC(C)Cn1c(O)c(N=NC(=O)c2cccc(S(=O)(=O)N3CCCCC3)c2)c2ccccc21 | -11.5% |
| CC(Oc1cccc2c1OC(C)(C)C2)C(=O)O (configuration not stated) | 0.6% |
| CSc1nc(N)nc(SCC(=O)c2ccc(C)cc2)c1C#N | -16.8% |
| CN(Cc1cc(=O)n2ccsc2n1)c1ccccc1 | -12.2% |
| CCn1nc(C(=O)NCCc2ccc(S(N)(=O)=O)cc2)c2ccccc2c1=O | -4.0% |
| O=C(Nc1ccc(Cl)c([N+](=O)[O-])c1)c1cnccn1 | -11.2% |
| C[C@@H]1/C(=N/O)CC2C[C@@H]1C2(C)C | -4.6% |
| C/C(=N\NC(=O)C1COc2ccccc2O1)c1cccs1 (configuration not stated) | -16.5% |
| COC(=O)c1cc(N2C(=O)C3C(C2=O)C2(C)C=CC3(C)O2)ccc1Cl (configuration not stated) | 2.82µM* |
| O=C(C1CCN(S(=O)(=O)N2CCOCC2)CC1)N1CCN(c2ccccc2)CC1 | -1.5% |
| O=C(COC(=O)c1ccc2c(c1)OCO2)NCc1ccc2c(c1)OCO2 | -18.1% |
| CC(C)C(=O)NCCn1ccc2ccccc21 | 0.5% |
| CC1(C)C(=O)OC(C(=O)c2ccccc2)C(C)(C)C1=O (configuration not stated) | -0.1% |
| C/C(=N\NC(=O)C1CC1(c1ccccc1)c1ccccc1)c1cccc([N+](=O)[O-])c1 (configuration not stated) | -2.2% |
| [O-][N+]12CCN(CC1)c1ccccc12 | -4.2% |
| OCCCNC(=S)Nc1ccc2nc(-c3ccccn3)c(-c3ccccn3)nc2c1 | -15.8% |
| CCOC(=O)Cn1cnc2sc3c(c2c1=O)CCC3 | -15.5% |
| O=C(c1c(F)cccc1F)N1CCN(c2ccccc2F)CC1 | -16.0% |
| CCCS(=O)(=O)N1CCCC(C(=O)NCCCN(C)c2ccccc2)C1 (configuration not stated) | -1.7% |
| O=c1c(-c2nc3ccccc3o2)c2oc3ccccc3n2c2ccccc12 | ? |
| Cc1ccc2c3c([nH]c2c1C)-c1nonc1CC3 | -24.2% |
| O=C(NCCCN1CCCC1)C1CCC(=O)N1C1CCCCC1 (configuration not stated) | -9.6% |
| Cc1nc2sc(C(c3ccc(Cl)cc3)N3CCOCC3)c(O)n2n1 (configuration not stated) | -6.0% |
| O=S(=O)(c1ccc(S(=O)(=O)N(Cc2ccc(F)cc2)C2CCCC2)cc1)N1CCCC1 | -13.6% |
| CCCN(CCC)S(=O)(=O)c1ccc2c(c1)CCCN2C(C)=O | -9.4% |
| O=C(NC(=S)Nc1ncc(Br)cc1Br)c1cncc(Br)c1 | -17.5% |
| O=C(Cc1ccccc1)N[C@H](c1ccccc1)P(=O)(O)CO | -4.4% |
| Cc1ccc(CNc2nc(N)c([N+](=O)[O-])c(NCc3ccccc3)n2)cc1 | -10.3% |
| CCOC(=O)C1Cc2c([nH]c3ccccc23)CN1 (configuration not stated) | -13.5% |
| Cc1cc(C(=O)N/N=C2\CCCC(=O)C2)c2ccccc2n1 | -4.8% |
| NC(=O)CSc1nnc(C2CC2)n1-c1ccccc1 | -12.5% |
| CN(C)S(=O)(=O)N1CCN(C(=O)N2CCCCC2)CC1 | -21.7% |
| Cc1ccc(C(=O)NCC(=O)Nc2cccc(C(F)(F)F)c2)cc1 | -6.1% |
| O=C(CSc1ccccn1)c1ccc2c(c1)OCO2 | -27.5% |
| O=C(COc1ccc(Br)cc1)N(Cc1ccccc1)c1ccccn1 | -5.8% |
| CCCc1cc(=O)n2[nH]cnc2n1 | -10.7% |
| CC(=O)NCCNc1ncnc2ccc(-c3ccc(C(=O)N(C)C)cc3)cc12 | ? |
| CCCc1nn(C)c(C(=O)Nc2cccc(CC)c2)c1Cl | -0.9% |
| COCC(C)n1c(C)cc(C(=O)COC(=O)c2c(C)nn(-c3ccccc3)c2C)c1C (configuration not stated) | -6.0% |
| CC1(C(=O)OCC(=O)c2c[nH]c3ccccc23)CC1(Cl)Cl (configuration not stated) | -20.9% |
| COc1cccc(Nc2nc(CN3CCOCC3)nc3sc4c(c23)CCCC4)c1 | -8.5% |
| Cc1ccc2nc(SCC(=O)NC3CCCc4ccccc43)[nH]c2c1 (configuration not stated) | -20.8% |
| Cc1cc(S(=O)(=O)N2CCC(N3CCCCC3)CC2)ccc1-n1cnnn1 | -12.1% |
| O=c1[nH]c(N2CCOCC2)nc2c1CCCC2 | -5.1% |
| C=CCNC(=O)c1sc(=S)n(-c2ccc(C(=O)OCC)cc2)c1N | 15.8µM* |
| O=C(c1cccnc1)N1CCN(Cc2ccc3c(c2)OCO3)CC1 | -0.4% |
| Cc1ccc(S(=O)(=O)NC2(C(F)(F)F)NC(=O)N(C)C2=O)cc1 (configuration not stated) | -10.3% |
| Cc1ccc(S(=O)(=O)N2CCN(C(C)C(=O)Nc3ccccc3-c3ccccc3)CC2)cc1 (configuration not stated) | -0.2% |
| Nn1cc(-c2ccccc2)nc1SCC(=O)N1CCN(S(=O)(=O)c2ccc3ccccc3c2)CC1 | -5.0% |
| COc1ccc(-c2nc(C#N)c(NC(C)c3ccccc3)o2)cc1OC (configuration not stated) | ? |
| CC(/C=N/O)Cc1ccc2c(c1)OCO2 (configuration not stated) | -17.7% |
| CC(Sc1nnc(N)s1)c1ccccc1Cl (configuration not stated) | ? |

By substructure, those above containing a cyano group.
| SMILES | HPGD block |
| --- | --- |
| N#CC1=C(N)N(c2ccccc2)C(c2ccccc2)C1(C#N)C#N (configuration not stated) | ? |
| CSc1nc(N)nc(SCC(=O)c2ccc(C)cc2)c1C#N | -16.8% |
| COc1ccc(-c2nc(C#N)c(NC(C)c3ccccc3)o2)cc1OC (configuration not stated) | ? |

Remaining list, next part:
| SMILES | HPGD block |
| --- | --- |
| COc1cc2c(cc1OC)C(=O)CC(C)S2 (configuration not stated) | ? |
| Cc1ccc(SCc2cc(-c3ccc(Cl)cc3)on2)cc1 | -20.1% |
| CCN(CC)CCCN1C(=O)C(O)=C(C(=O)c2ccc(C)o2)C1c1cccs1 (configuration not stated) | -4.0% |
| NCC(=O)Nc1ccccc1 | -3.6% |
| Cc1ccc(NC(=O)CS(=O)(=O)c2c[nH]c3ccccc23)c(C)c1 | -1.7% |
| CS/C(=N\S(=O)(=O)c1cccs1)Nc1ccc(F)c(Cl)c1 | -25.3% |
| O=C(NCSc1ccnc(SCNC(=O)c2ccccc2)n1)c1ccccc1 | -21.2% |
| Cc1ccccc1OCC(=O)NCCc1nc2ccccc2[nH]1 | -9.7% |

Random excerpt: 2 entries already listed, in no set order.
| SMILES | HPGD block |
| --- | --- |
| CSc1nc(N)nc(SCC(=O)c2ccc(C)cc2)c1C#N | -16.8% |
| CCCS(=O)(=O)N1CCCC(C(=O)NCCCN(C)c2ccccc2)C1 (configuration not stated) | -1.7% |

(further entries)
| SMILES | HPGD block |
| --- | --- |
| C/C(=N/Nc1ccc(C(=O)O)cc1)c1ccc(O)c(O)c1O | 25.1µM* |
| CCOc1ccc(Oc2nc(Nc3ccc(C)cc3)nc(N(C)C)n2)nn1 | -16.8% |
| CC(C)NC(=O)N1CC[C@@]2(CCCN(S(C)(=O)=O)C2)C1 | -2.6% |
| Cc1ccc(C(=O)NCc2occc2C(=O)O)o1 | -8.6% |
| O=C(CC1S/C(=N/N=C/C=C/c2ccccc2)NC1=O)Nc1ccc(Cl)c(Cl)c1 (configuration not stated) | -5.8% |
| CCOc1ccc(NC(N)=O)cc1 | -3.5% |
| COc1ccc(CSC(=N)N)cc1[N+](=O)[O-] | -1.2% |
| Cc1cccnc1Nc1nc(-c2ccc(O)cc2)cs1 | -9.4% |
| Cc1cccc(OCC(=O)O/N=C(\N)c2ccccn2)c1 | -6.9% |
| C/C(=N\NC(=O)c1ccccc1-n1cccc1)C1CC1 | -15.0% |
| O=C(CSc1nnnn1C1CCCCC1)NCc1ccco1 | -5.2% |
| CNC(=S)N(Cc1cccs1)Cc1cc2cc(OC)ccc2[nH]c1=O | ? |
| N#C/C(=C\c1ccc2c(c1)OCCO2)C(=O)NC1CCCCC1 | ? |
| COc1ccc(N(Cc2ccco2)C(=O)c2ccccc2F)cc1OC | -1.3% |
| Cc1cc(NC(=O)c2ccc(S(=O)(=O)N3CCCC3)cc2)nc2c1c(=O)oc1ccccc12 | ? |
| CCc1cc2cc(C(=O)N3CCN(Cc4ccccc4)CC3)sc2s1 | -18.2% |
| CN1CCN(NC(=O)CN2C(=O)/C(=C/c3ccccc3Cl)SC2=S)CC1 | 12.6µM* |
| O=[N+]([O-])c1ccc(Nc2nc3ccccc3s2)cc1 | -29.1% |
| Cc1cccc(CSC2=NCCN2C(=O)c2ccco2)c1 | -12.6% |
| Cc1ccc(NCc2nnc(SCC#N)o2)c(C)c1 | -15.6% |
| O=C(O)CCCCC(=O)O | -3.4% |
| CC1=C(C(=O)OC2CCCCC2)C(c2ccc(C)o2)C2=C(CCCC2=O)N1 (configuration not stated) | -19.1% |
| CC1(C)Cc2nc3sc4c(OCc5ccccc5)ncnc4c3cc2CO1 | -10.5% |
| O=C(NCc1ccccn1)c1ccc(NC(=O)c2ccco2)cc1 | 14.1µM* |
| COc1cc(NC(=O)CSc2nc3c(C)ccc(C)c3cc2C)c(C(=O)O)cc1OC | 1.9% |
| O=C(CCc1ccccc1)Nc1ncn[nH]1 | -16.6% |
| CC(=O)c1c(C(C)=O)c(C)n(Cc2ccc(Cl)cc2)c1C | -7.5% |
| COc1ccc(S(=O)(=O)N2CCN(Cc3ccccc3)CC2)cc1 | -13.7% |
| CCOC(=O)CON1C(=O)c2ccccc2C1=O | -3.1% |
| Cc1cccc(S(=O)(=O)Nc2nc3ccccc3nc2NCc2ccco2)c1 | -23.8% |
| COc1cccc(C(=O)NNC2=CC(=O)CC(C)(C)C2)c1 | -5.3% |
| COCC(=O)N1CCC2(CCN(Cc3ccccc3)CC2)CC1 | -6.1% |
| Cn1c(=O)oc2cc(S(=O)(=O)Nc3cccc4c3CCCC4)ccc21 | -8.3% |
| O=C(O)c1ccc(N2CCCC2=O)cc1 | -7.6% |
| Cc1nc2ccccc2c(=O)n1NC(=O)c1c(O)c2c(n(CC(C)C)c1=O)CCCC2 | -15.9% |
| Cc1cccc(N(CC(=O)NC2CCCCC2)C(=O)CCC(=O)Nc2ccccn2)c1 | -2.2% |
| CC(OC(=O)CCc1nc2ccccc2c(=O)[nH]1)C(=O)NCc1ccc2c(c1)OCO2 (configuration not stated) | -21.9% |
| Cc1oncc1C(=O)NC(C)C | 0.1% |
| CCOC(=O)Cc1cc(=O)n2[nH]c(-c3ccc(C)cc3)cc2n1 | -19.0% |
| CCOC(=O)Cc1csc(NC(=O)CSc2nnc(-c3ccc(C)cc3)o2)n1 | -8.9% |
| CC(C)NC(=S)NC(=O)/C=C/c1cccc2ccccc12 | -2.4% |
| CCNC(=S)NNC(=O)c1cccs1 | -10.6% |
| Cc1ccc(S(=O)(=O)NCCC(C)C)cc1[N+](=O)[O-] | -18.4% |
| CC(C)(C)OC(=O)NCCCC1=CC2=CC(=O)C(C)(OC(=O)c3ccco3)C(=O)C2=CO1 (configuration not stated) | -5.6% |
| COC(=O)C1=CN(C2CC2)C=C(C(=O)OC)C1c1ccccc1OC | ? |
| Cc1ccc(CSCC(=O)N2CCN(c3ccc(F)cc3)CC2)cc1 | -7.9% |
| O=C(NC1CCCC1)C(Cc1ccccc1)n1cccc1 (configuration not stated) | -15.4% |
| CC(=O)c1cccc([N+](=O)[O-])c1 | -12.6% |
| COC(=O)c1ccc2c(=O)n(Cc3ccco3)c(SCC(=O)Nc3ccc(C)c(Cl)c3)nc2c1 | -1.7% |
| CC(SC(=S)N(C)Cc1cccs1)C(=O)O (configuration not stated) | -7.5% |
| CN1CCN(c2ccc([N+](=O)[O-])cc2C(=O)c2ccc(Br)cc2)CC1 | -11.8% |
| CCCCCCNCc1cccc(Br)c1 | -1.4% |
| CCOC(=O)c1ccccc1NC(=O)Cn1cnc2c(cnn2-c2ccccc2)c1=O | -5.3% |
| CCOc1cc(CNc2ccc(O)cc2)ccc1OCc1ccc(Cl)cc1Cl | -7.2% |
| Cc1ccc(NC(=O)N(CCCN2CCOCC2)Cc2cc3cc4c(cc3[nH]c2=O)OCO4)cc1 | ? |
| Nc1nonc1C(=O)NCCNCc1cc(Br)ccc1OCc1ccccc1F | -3.9% |

A second format for some results above:
| HPGD block | SMILES |
| --- | --- |
| -7.2% | CCOc1cc(CNc2ccc(O)cc2)ccc1OCc1ccc(Cl)cc1Cl |
| ? | Cc1ccc(NC(=O)N(CCCN2CCOCC2)Cc2cc3cc4c(cc3[nH]c2=O)OCO4)cc1 |

Following part
| SMILES | HPGD block |
| --- | --- |
| O=C1N/C(=N/S(=O)(=O)c2ccccc2)S/C1=C/c1cccnc1 | ? |
| O=C(NC1CC2CCCC(C1)N2C(=O)Nc1ccc(Cl)c(C(F)(F)F)c1)C1CC1 (configuration not stated) | -4.2% |
| CCOC(=O)CSc1nnc(CNc2ccc(F)cc2)o1 | -3.1% |
| COc1ccc(CCNC(=O)C2CC(c3cccc([N+](=O)[O-])c3)=NO2)cc1 (configuration not stated) | -8.0% |
| CCCC(CCC(=O)OC)(C(=O)OCC)c1csc(N)n1 (configuration not stated) | -6.0% |
| COc1ccc(-c2nnc(NC(=O)c3ccc(S(=O)(=O)N4CCc5ccccc5C4)cc3)o2)cc1 | -23.3% |
| Cc1ccc(-n2c(SCC(=O)Nc3cc(C)on3)nc3c(c2=O)SC(C)C3)cc1 (configuration not stated) | -2.6% |
| Cc1c(Cl)c([N+](=O)[O-])nn1CC(=O)NC(C)C1CC2CCC1C2 (configuration not stated) | -6.4% |
| COc1cc(Cn2ccnc2)c(OC)cc1Cn1ccnc1 | -5.3% |

Screening results: PubChem BioAssay, National Center for Advancing Translational Sciences (NCATS)
